ClpP mod = qHTS Assay for Activators of ClpP; Potency, µM (top dose mostly 57.5 µM), for inactives: at the top dose activity change, negative = active; 340,000 tested, 1.9% active; ATP-dependent Clp protease proteolytic subunit (Bacillus subtilis (strain 168)), P80244; AID 651965, 2013; purified B. subtilis ClpP, FRET peptide cleavage, 20 min; active = well fitted falling curve with a large enough effect; inconclusive = small, poorly fitted or top-dose-only effect; inactive = no such curve, though single readings can be large or run the other way; also: potency is read from the fitted curve at half-maximal effect; the source files actives as falling curves though it sought activators and does not explain the sign; nearly all actives have a fitted effect of over 65% in size; many hits overshoot -100%
Target sequence (P80244 whole entry, looked up): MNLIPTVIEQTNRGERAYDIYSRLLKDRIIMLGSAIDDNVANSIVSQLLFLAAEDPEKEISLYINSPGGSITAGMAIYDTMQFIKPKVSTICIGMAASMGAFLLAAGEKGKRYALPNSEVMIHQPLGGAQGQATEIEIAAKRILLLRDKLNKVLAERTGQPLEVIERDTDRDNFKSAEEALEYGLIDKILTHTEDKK
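Purified B. subtilis ClpP, 10 microg/mL final in Tris/HCl pH8 with KCl, BSA, glycerol and Tween-20, cleaved an Abz/nitrotyrosine-quenched decapeptide. Fluorescence (ex 320, em 430) was read at 0 and 20 min at room temperature. Delta was normalized to 5.8 microM ADEP and DMSO/no-enzyme controls.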
D2 ag = human D2 receptor agonism in beta-arrestin assay | P14416 | DiscoveRx PathHunter D2 beta-arrestin, luminescence, 90 min; 100% = 57 uM dopamine signal | activation, % (concentration not given with the values) | 360,000 tested, 0.084% active | AID 624465; in the data active = activation above about 40%; inconclusive = about 15% to 40%; inactive = below about 15%; also: compound concentration not given in the record; the text of the record calls up to 30% inactive
Target sequence (P14416 whole entry, looked up): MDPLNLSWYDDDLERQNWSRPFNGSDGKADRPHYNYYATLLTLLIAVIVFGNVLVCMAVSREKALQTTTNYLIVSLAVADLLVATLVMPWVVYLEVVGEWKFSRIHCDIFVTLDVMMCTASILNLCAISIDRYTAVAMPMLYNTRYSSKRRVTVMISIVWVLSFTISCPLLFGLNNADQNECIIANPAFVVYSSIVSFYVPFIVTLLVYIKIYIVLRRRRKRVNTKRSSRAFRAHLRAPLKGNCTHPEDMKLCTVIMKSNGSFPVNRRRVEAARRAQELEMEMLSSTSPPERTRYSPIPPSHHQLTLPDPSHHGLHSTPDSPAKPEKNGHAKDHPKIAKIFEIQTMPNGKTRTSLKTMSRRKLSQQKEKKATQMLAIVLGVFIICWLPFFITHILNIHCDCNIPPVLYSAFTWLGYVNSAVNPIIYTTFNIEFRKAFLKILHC
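DiscoveRx PathHunter D2 beta-arrestin cells (2,100/well) attached overnight, then compound-stimulated 90 min at 37 C in HBSS/10 mM HEPES/0.1% Tween-20 buffer; beta-galactosidase complementation read by luminescence after 1 h at ambient temperature. Dopamine 57 uM final (EC100) as control.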
gsp antag = antagonists of gsp mutant (McCune-Albright syndrome). Potency, µM (top dose mostly 76.9 µM), for inactives: at the highest dose activity change, negative = inhibition, hits mostly inhibitors. gsp-mutant cells, cAMP HTRF, 30 min; control for the full effect not named in the record. AID 624288. 340,000 tested, 0.4% active; active = falling curve of any shape with a large fitted effect; inconclusive = falling curve, mostly with a smaller effect; inactive = flat or rising curve; cell line not stated here;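 also: intracellular cAMP measured with PDE inhibitor Ro 20-1724 present during compound exposure; potency is read from the fitted curve at half-maximal effect; % is scaled to controls: 0 for no effect and ±100 for the full control effect; nearly all actives have a fitted effect of over 65% in size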
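Cells in G418 medium, seeded 16-24 h, 37C; buffer exchange to DPBS + 1 mM CaCl2, 0.5 mM MgCl2, 0.05% BSA; cpds in DMSO + […] (300 uM stock), 30 min 37C; HTRF cAMP detection.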
gsp agonist = agonists of gsp mutant (McCune-Albright syndrome); gsp mutant cells, cAMP HTRF, 30 min; control for the full effect not named in the record; Potency, µM (top dose mostly 76.9 µM), without a hit: top-dose activation (cAMP increase), usual class: activators; 340,000 tested, 0.13% active; active = well fitted activation curve with a large enough effect; inconclusive = small, poorly fitted or top-dose-only effect, or another doubt; inactive = no such curve, though single readings can be large or run the other way; cell line not stated here;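 also: phosphodiesterase inhibitor Ro 20-1724 added with compounds to block cAMP breakdown; potency is read from the fitted curve at half-maximal effect; nearly all actives have a fitted effect of over 60% in size; about a fifth of the inactives were tested at one dose only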
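Cells stably selected in G418 were plated at 2000/well, grown 16-24 hr, then given compounds in DMSO with the PDE inhibitor […] (300 uM solution added) for 30 min at 37C; cAMP was read by HTRF.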
Sfp inh = blocks B. subtilis Sfp PPTase activity | Q9F4F7 | Biochemical Sfp PPTase activity, qHTS | Potency, µM, for the others: max response, negative = inhibition, hits mostly inhibitors | 310,000 tested, 3.5% active | AID 1490; active = well fitted inhibition curve with a large enough effect; inconclusive = small, poorly fitted or top-dose-only effect, or another doubt; inactive = no such curve, though single readings can be large or run the other way;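 also: the enzyme is Sfp with the accession as filed and its product quenches rhodamine fluorescence; potency is read from the fitted curve at half-maximal effect; 0% = enzyme reaction without inhibitor and -100% = no enzyme wells; top concentration of the series not given in the record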
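Fluorescence-quenching assay: 15 nM Sfp-PPTase preincubated 15 min at room temperature with compound, then 5 uM rhodamine-CoA and 12.5 uM BHQ-2-labelled YbbR peptide added. Fluorescence (ex 525/em 598 nm) read at start and after 30 min; difference gives rate.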
Menin-MLL FL inh = inhibitors of human menin-MLL interaction, wild-type MLL peptide; FP activity change, % at 61.4 µM; 290,000 tested, under 10 active; Fluorescence polarization, fluorescein-MLL peptide displacement from menin; inconclusive = falling polarisation curve, or a change in total fluorescence; inactive = total fluorescence flat and polarisation flat or rising; no compound was filed as active; the % refers to the polarisation; negative = inhibition;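 also: % of control where 0% means no effect; inhibitors lower the polarisation; unlabelled MLL peptide was the positive control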
PINK1 expr mod = changes PINK1 expression; 410,000 tested, 0.2% active; Potency, µM (doses to about 76.6 µM), without a hit: at the top dose activation (PINK1 increase), actives largely listed as activators; PINK1 immunofluorescence, high-content cytometry, 24 h; AID 624263; active = well fitted activation curve with a large enough effect; inconclusive = small, poorly fitted or top-dose-only effect; inactive = flat fitted curve, though single readings scatter; cell line not stated here;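 also: potency is read from the fitted curve at half-maximal effect; % of control where 0% means no effect; nearly all actives have a fitted effect of over 65% in size; a mitochondrial uncoupler was the plate control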
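PINK1 protein level read as immunofluorescence by microplate cytometer in a fixed, stained stable cell line after 24 h exposure to five compound concentrations, with CCCP as control.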
An asterisk follows results filed as active; ? = inconclusive; . = not tested or not shown; [ ] = remark or other dose.

Values run as follows: Sfp inh, ClpP mod, gsp antag, gsp agonist, D2 ag, Menin-MLL FL inh, PINK1 expr mod
Nc1cccc2c1C(=O)N(Cc1nnc(-c3ccccc3Br)o1)C2=O
→ 14%, -1.2%, -20%, -2%, 3.7, ?, 0.3%
CCOCCCNC(=S)N1CCN(C(=O)C(=O)Nc2ccc(C(=O)OC)cc2)CC1
→ 17%, -0.4%, -4%, 0%, 1.3, 2.1, 2.9%
COc1ccccc1N1CC(C(=O)Nc2cc(C(F)(F)F)ccc2N2CCCC2)CC1=O (stereo unspecified)
→ ., -1.1%, 2%, -5%[15.4 µM], -1.9, ., -1.0%
CCn1c(SCc2nc(-c3ccccc3)no2)nc2ccccc21
→ 1%, -0.3%, -15%, 0%, -2.0, -4.5, -0.2%
COCCN(C(=O)COC(=O)c1ccc2c(c1)OCO2)c1c(N)n(Cc2ccccc2)c(=O)[nH]c1=O
→ ., -12%, ., -73%[inhibitor], -2.7, ., 0.2%
O=C(c1cn(-c2ccccc2)nc1-c1cccnc1)N1CCCCC1
→ 10%, -8.2%, 2%, -2%, -4.5, 0.9, -3.0%
COc1ccc(C(=O)NC(=O)Nc2cc(C)ccn2)cc1
→ 8%, -0.9%, 8%, 8%, -0.2, 3.2, .
Cc1cccc(N2CCN(S(=O)(=O)c3cnc[nH]3)CC2)c1C
→ 11%, 0.5%, -2%, -30%[inhibitor], -2.8, 0.7, 1.2%
COc1cc(C(=O)NCc2cc3ccccc3n2C)cc(OC)c1OC
→ -6%, -0.6%, -9%, 1%, 0.6, 2.3, 3.2%
C#CCOCCOCCOCCNc1nc(N2CCN(C(=O)[C@H](CCC(=O)O)n3cc([C@@H](N)[C@H](C)CC)nn3)CC2)nc(N2CCN(C(=O)[C@H](CCC(=O)O)n3cc([C@@H](N)CC(N)=O)nn3)CC2)n1
→ ., 1.2%, 1%, ., -1.4, ., -0.9%
CCOC(=O)Cn1c(=O)c2c(nc3n2CCCCN3c2ccc(OCC)cc2)n(C)c1=O
→ ., ., -4%, 2%[15.4 µM], 3.2, ., 1.4%
CCOC(=O)N1CCN(C(=O)CSc2ccc(-c3ccccc3OC)nn2)CC1
→ 19%, -1.5%, -11%, -1%[15.4 µM], -0.6, 0.2, 0.2%
COC(=O)C(C(=O)Nc1cccc(Cl)c1C)C1CCCC1 (stereo unspecified)
→ 1%, -3.6%, 0%, -17%, -0.5, -0.1, -2.1%
COc1ccccc1NC(=O)Cc1nc(CCl)cs1
→ -5%, 1.1%, 0%, 5%, -3.4, 4.7, -1.4%
Cc1no[n+]([O-])c1COc1ccccc1/C=C1\NC(=S)NC1=O
→ 9%, ?, -7%, -80%[inhibitor], -3.6, -1.2, 0.5%
CCc1nc2ccc(C(=O)N(C)Cc3ccccc3)cn2c1N(C)CCCc1ccccc1
→ ., 1.8%, ., ., 6.3, ., 5.7%
CCOC(=O)C(NCCc1ccccc1F)(NC(=O)CC)C(F)(F)F (stereo unspecified)
→ 3%, -16%, 5%, -43%[inhibitor], 2.0, ., 0.8%
O=C(Nc1cccc(F)c1)NC1(C(=O)NCC2CCCO2)CCCCC1 (stereo unspecified)
→ 12%, ., 10%, -9%, -3.2, -0.1, 0.3%
CN(C)c1ncc2nc(-c3ccccc3)c(=O)n(Cc3ccc(F)cc3)c2n1
→ 11%, ., ., ., ., -21, -0.5%
Cc1ccc(C2=NC3(CCCC3)NC2=S)cc1
→ 20%, ., -5%, 30%[15.4 µM], -1.6, -1.3, 7.4%
Clc1cccc(/C(Cc2nc3ccccc3[nH]2)=N\Nc2ccccc2)c1
→ 11%, -6.9%, -10%, -43%[inhibitor], -0.7, -0.2, ?
CCN(Cc1ccccc1)C(=S)NC(=O)c1ccccc1Br
→ 24%, -3.4%, -10%, 14%, 1.0, 0.8, -0.1%
COc1ccc2[nH]c3c(c2c1)CC(C)NC3=O (stereo unspecified)
→ -9%, 4.5%, -3%, 19%, -3.1, 0.0, -2.0%
Cc1ccc(/C=C(\NC(=O)c2ccccc2)C(=O)N2CCCCC2)cc1
→ 12%, -0.5%, 2%, 2%, -6.5, 0.2, 0.3%
COc1ccccc1OCCn1c(C)c(C=O)c2ccccc21
→ 8%, 1.9%, ?, 0%, 5.1, 2.7, 0.9%
COc1ccccc1CNC(=O)c1ccccc1OCc1ccc(F)cc1
→ -11%, -0.1%, 12%, -2%, -2.4, 2.5, ?
CCC(c1nnnn1C(C)(C)C)N1CCN(C(=O)c2ccco2)CC1 (stereo unspecified)
→ 1%, ., -14%, -10%[15.4 µM], -2.0, -6.9, 1.2%
NS(=O)(=O)c1ccc(CNC(=O)C(Cc2ccccc2)NS(=O)(=O)c2ccccc2F)cc1 (stereo unspecified)
→ 4%, 0.5%, 4%, -82%[inhibitor], 1.1, -2.6, 2.6%
COc1ccc(S(=O)(=O)c2c(O)c3ccc(C(=O)Nc4ccc(F)cc4)cc3[nH]c2=O)cc1
→ 30%, -9.8%, 7%, 8%, -5.3, 4.6, -0.1%
O=[N+]([O-])c1cc(/C=N/n2cnnc2)ccc1N1CCCC1
→ -3%, 0.9%, 21%, -10%, -1.8, -4.7, -1.3%
O=C(NC(=S)NCCc1ccccc1)c1cccc(Cl)c1
→ 7%, -3.3%, 6%, -6%[15.4 µM], 5.6, ., -1.3%
O=C(NCc1ccccc1)c1ccccc1NC(=O)C1CCCCC1
→ 18%, -9.7%, 0%, -21%, 0.6, ., 2.3%
Cn1c(=O)c2sccc2n(Cc2ccccc2)c1=O
→ 9%, 1.6%, -6%, 1%[15.4 µM], 1.0, -0.8, -0.3%
CCN(CC)CCOC(=O)c1ccc(NC(=O)c2ccc(Cl)c(S(=O)(=O)N3CCCCCC3)c2)cc1
→ ?, -0.9%, -1%, -1%, 4.2, -0.2, 6.6%
CC(=O)c1cccc(NC(=S)NC(=O)c2cncc(Br)c2)c1
→ ?, -3.7%, 6%, -35%[inhibitor], -3.8, -1.3, 2.2%
CCOC(=O)N1CCN(C(=O)C2CCC(=O)N(CCc3ccccc3)C2)CC1 (stereo unspecified)
→ ., ?, 3%, 8%, 0.0, ., 0.2%
Cc1cc(-c2cc(C(=O)NCc3ccccc3)on2)nc(NCC2CC2)n1
→ 14%, -12%, -3%, -1%, -1.4, 4.2, 4.7%
Cc1ccc(-n2c3nc(=O)[nH]c(=O)c-3cc3cc([N+](=O)[O-])ccc32)cc1C
→ -27%, ., 1%, -8%[15.4 µM], -6.4, -1.3, -2.0%
Cc1ccc([C@H]2C[C@H](n3cc(C4CC4)nn3)[C@@H](O)CN2C(=O)c2cccs2)cc1
→ ., 0.5%, ., 12%, 3.7, ., 1.0%
CCOC(=O)C1(C)CCN1C(=O)c1cccc(Cl)c1 (stereo unspecified)
→ ., -3.1%, ., ., 42*, ., 1.1%
O=C1c2ccccc2C(=O)c2c1ccc1c(=O)n(C3CCCCC3)[nH]c21
→ -12%, -0.2%, -4%, -3%, -0.6, -1.1, -4.6%
O=S1(=O)CC(O)C(NCCO)C1 (stereo unspecified)
→ 18%, ., ?, -2%[15.4 µM], 0.7, 0.7, -0.1%
CCC(=O)Nc1c2c(nn1-c1ccc(F)cc1)CS(=O)(=O)C2
→ 13%, ., -1%, -35%[inhibitor], 0.4, -1.6, 0.9%
O=C(Cn1cc2c(n1)CCCCC2)N1CCc2ccccc21
→ 17%, -1.6%, 9%, -36%, -0.4, 0.8, 2.8%
Cc1nnc(N2CCC(C(=O)N3CCCCCC3)CC2)c2nn(-c3ccc(Cl)cc3)c(C)c12
→ 3%, -23%, -10%, -124%[inhibitor], 6.6, ., -0.8%
COC(=O)c1ccc(NC(=O)Nc2ccccc2C)cc1
→ 18%, ., 1%, 0%[15.4 µM], 0.9, -0.2, 2.0%
COC(=O)C1=C(C)N=C2SC(C)C(=O)N2C1/C=C/c1ccccc1OC (stereo unspecified)
→ 22%, -3.1%, 16%, ?, -5.0, 6.3, 1.4%
COc1ccc(C(=O)COC(=O)Cn2c(C)csc2=O)c(OC)c1
→ ., -2.0%, -3%, -27%, -3.4, ., -0.6%
CSc1cccc(NC(=O)CN(Cc2ccc(Cl)cc2)S(C)(=O)=O)c1
→ 13%, -1.5%, -2%, -12%, -2.3, 0.6, 0.4%[38.3 µM]
CC(=O)COc1ccc2cc(-c3ccccc3)c(=O)oc2c1
→ 15%, ., -2%, ?, 2.1, 5.6, 0.6%
COc1ccc(CN2C(=O)c3cccnc3C2=O)cc1S(=O)(=O)N1CC(C)CC(C)C1 (stereo unspecified)
→ 6%, 3.0%, -7%, ?, -0.3, -1.6, 0.7%
CC(C)C1C(=O)N(Cc2cn(CC3CCCCC3)nn2)CCS(=O)(=O)N1Cc1ccc(-c2ccc(F)cc2)cc1 (stereo unspecified)
→ ., 1.4%, ., -26%, 2.9, ., 1.3%
COc1ccc(CCn2c(C)cc(C(=O)CN3C(=O)C(=O)N(C4CCCC4)C3=O)c2C)cc1OC
→ ., ., ?, -17%[15.4 µM], 0.5, ., 0.7%
COc1ccc(CC(=O)N2CCc3ccccc32)cc1
→ -2%, -2.4%, 6%, -41%[inhibitor], -0.8, 0.9, -0.3%
Cc1cc(C)cc(OCCNC(=O)c2ccc(Br)cc2)c1
→ 11%, -3.3%, 6%, 12%, -1.9, -6.5, 4.2%
Cc1ccc(C(=O)Oc2oc(-c3ccco3)nc2C=Nc2ccc(Cl)cc2)cc1
→ ?, -2.2%, 4%, -31%[inhibitor], -6.3, 4.4, 0.1%
O=C(NC(Cc1c[nH]c2ccccc12)C(=O)O)c1ccc(F)cc1 (stereo unspecified)
→ -6%, ., 7%, 17%, 1.9, 2.6, -0.5%
C[C@@H]1CN([C@@H](C)CO)C(=O)c2cc(Br)cnc2O[C@H]1CN(C)C(=O)Cc1ccccn1
→ ., -2.0%, ., 14%, -2.5, ., 1.2%

Screening data deposited in PubChem by National Center for Advancing Translational Sciences (NCATS).
